Vif A3G = HIV-1 Vif–A3G interaction blockers – biochemical, TR-FRET, GST-Vif 1-94, biotin-A3G peptide, dose response retest, primary screen (AID 1117319); inhibition, %; hits with a dose series show IC50 in µM; TR-FRET GST-Vif / biotin-A3G peptide binding; higher % means a stronger effect; test concentration not given here; strong numbers were not always called active; actives 0.57% (n = 260,000);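 active means above the screen mean plus three standard deviations and confirmed in dose response; inconclusive means results disagree or hit not tested in dose response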;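 further: Vif residues 1-94 fused to GST binding biotinylated APOBEC3G peptide 110-148; 0% = full assay without inhibitor and 100% = GST in place of GST-Vif; retest series ran down from 100 µM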
A1 inh = inhibitors of the anti-apoptotic protein A1, read as caspase activation; MEF A1-2A-BIM cells, Caspase-Glo 3/7 luminescence, 3 h; percent of clofoctol response, vehicle zero; caspase activation, % (test concentration not listed); actives 0.066% (n = 330,000);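 active means over half of replicate activation scores above 10%, or exactly half above 10 with the replicate mean above 10; inconclusive means replicate mean below 10 yet half the replicates above 10; inactive means over half of replicates below 10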;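 further: wells of about 30 µL received 50 nL stock; many hits fall short of the cut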
AF4-AF9 inh = inhibitors of human MLL-AF4/AF9 interaction | P42568 | AlphaScreen, biotin-AF4 peptide binding to FLAG-AF9 | inhibition, % at 10 µM | actives 0.47% (n = 350,000);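 active means every replicate reaching a set inhibition limit, whatever the replicate mean, cut at about 25% in these data; inconclusive means mean inhibition reaches that limit but some replicates miss it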;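 further: 0% = plate neutral control median and 100% = total signal loss; the record names both 10 and 1 µM as test concentration; the first replicate is given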
Target sequence (P42568 whole entry, looked up): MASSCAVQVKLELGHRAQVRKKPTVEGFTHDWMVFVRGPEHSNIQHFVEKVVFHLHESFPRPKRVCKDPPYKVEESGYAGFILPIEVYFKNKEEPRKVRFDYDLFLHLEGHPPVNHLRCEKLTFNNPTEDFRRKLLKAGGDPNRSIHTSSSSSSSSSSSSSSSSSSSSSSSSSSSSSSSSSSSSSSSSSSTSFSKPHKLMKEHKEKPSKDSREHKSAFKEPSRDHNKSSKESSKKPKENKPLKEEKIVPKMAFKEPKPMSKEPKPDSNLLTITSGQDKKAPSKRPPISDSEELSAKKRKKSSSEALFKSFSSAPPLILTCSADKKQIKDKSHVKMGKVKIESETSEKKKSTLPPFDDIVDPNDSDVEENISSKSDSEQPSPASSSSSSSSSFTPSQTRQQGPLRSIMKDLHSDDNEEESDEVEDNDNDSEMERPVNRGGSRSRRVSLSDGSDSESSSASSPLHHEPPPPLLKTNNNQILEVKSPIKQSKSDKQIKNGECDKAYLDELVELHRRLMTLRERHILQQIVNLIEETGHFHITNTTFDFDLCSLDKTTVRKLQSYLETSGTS
Ecoli rRNA inh = inhibits bacterial ribosomal RNA function over humanized ribosomes; GFP signal change (wild-type ribosome), % (test concentration not listed); actives 1.6% (n = 350,000); E. coli WT GFP vs humanized-ribosome RFP mutants, fluorescence, 24 h; hits give low values; DMSO median 0, no signal -100;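 active means significant combined selectivity score with lowered wild-type GFP, culture density cut under 30%, mutant RFP and density less affected; inactive means any of these conditions unmet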; further: one replicate is shown; some compounds called inactive have numbers as strong as hits
Beta cell apopt = beta cell apoptosis inhibition; INS-1E cytokine-induced death, ATP luminescence, 48 h; percent of positive-control rescue, neutral wells zero; actives 0.8% (n = 300,000); protection from apoptosis, % (test concentration not listed);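 active means all replicates at 75% or more, or half of them and the mean; inconclusive means half reach 75% but not the mean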;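 further: 0% = cytokine-treated negative control wells and 100% = positive control rescue; higher means more ATP so stronger rescue from cytokine killing; wells of about 40 µL received 100 nL stock; the first replicate is given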
T cruzi repl = blocks replication of Trypanosoma cruzi | actives 1.4% (n = 300,000) | inhibition, % (no concentration beside the values) | T. cruzi beta-gal in NIH3T3, luminescence, 90 h;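 active means mean inhibition across valid replicates above about 55%, limit read from the data; inconclusive means mean below that limit but half or more replicates reach it; inactive means mean below it, under half of replicates reach it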;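 further: signal also drops with host cell toxicity which is not excluded here; 0% = plate median of DMSO wells and 100% = zero luminescence signal; higher percent means less beta-gal luminescence so fewer parasites; stock transfer was 50 nL into about 50 µL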
Calb FLC = C. albicans growth modulation with fluconazole; growth inhibition, % (no concentration beside the values); AID 1979; actives 0.57% (n = 300,000); C. albicans CaCi-2 (fluconazole-resistant clinical isolate) + fluconazole, Alamar Blue growth, 48 h;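 active means most replicates above 75%; inconclusive means exactly half above 75%; inactive means most below 75%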;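 further: all wells also contain fluconazole at 8 µg/ml as a sub-toxic cotreatment; 0% = median of DMSO wells and 100% = median of geldanamycin control wells; wells of about 8 µL received 7.5 nL stock; the first replicate is given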
RanGTP-Impb inh = inhibitors of RanGTP-importin-beta interaction, primary screen, biochemical, FRET, CFP-Ran, YFP-importin-beta, homogeneous. inhibition, % (concentration not given with the values). cell-free CFP-Ran/YFP-importin-beta FRET ratio. actives 1.1% (n = 300,000). AID 2216;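 active means most replicates above 15%; inconclusive means exactly half above 15%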;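 further: 0% = DMSO wells and 100% = Ran loaded with GDP instead of GTP; wells of about 40 µL received 100 nL stock; the first replicate is given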
Ecoli rRNA inh OD600 = second read-out of Ecoli rRNA inh, no call of its own (marks repeat the call); OD600 change, %; measured here: OD600 growth;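 optical density of the mix in the first replicate; 0 = DMSO median and -100 = no signal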
Ecoli rRNA inh RFP = further read-out of Ecoli rRNA inh, marked with its call; RFP signal change, %; measured here: RFP humanized mutant strains;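 first replicate; 0 = DMSO median and -100 = no signal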
Numbers without * were called inactive; ? = inconclusive; nt = not tested or not shown; & = joins results of further samples.

SMILES	Vif A3G	A1 inh	AF4-AF9 inh	Ecoli rRNA inh	Ecoli rRNA inh OD600	Ecoli rRNA inh RFP	Beta cell apopt	T cruzi repl	Calb FLC	RanGTP-Impb inh
CN1CCN(c2nc([N+](=O)[O-])nn2C)CC1	-2%	-0.5	-0.2	-3	-4	-6.1	nt	43	1	-1.2
CCOC(=O)C(O)(c1ccc(N(C)C(=O)c2ccc(Cl)c(Cl)c2)cc1)C(F)(F)F (stereo not drawn)	-10%	0.4	nt	nt	nt	nt	1	-4	-7	7.2
COC(=O)COc1ccc(/C=C2\C(=O)NC(=S)N(c3ccc(C)cc3)C2=O)cc1OC	6%	-0.6	-4.4	-1	-4	8.3	-2	-3	3	-0.7
N#C/C(=C(/O)c1ccc(S(=O)(=O)N(CCCl)CCCl)cc1)c1nc2ccccc2[nH]1	?	-0.1	-1.3	2	2	-5.0	4	-1	-21	0.2
C=CCn1c(O)c(C(CC)=NCc2cc(OC)cc(OC)c2)c(=O)[nH]c1=O	-1%	0.4	nt	nt	nt	nt	6	-7	nt	1.8
COc1ccc(OC)c(-n2c(O)c(C=Nc3c(C)n(C)n(-c4ccccc4)c3=O)c(=O)[nH]c2=S)c1	-1%	0.1	0.2	7	11	3.3	0	-17	-1	-1.0
COc1ccc(OC)c(-n2c(O)c(C=NCc3ccc4c(c3)OCO4)c(=O)[nH]c2=O)c1	-1%	-0.4	nt	nt	nt	nt	-9	4	-12	-1.5
COc1ccc(-n2c(C)nc3cc(C(=O)N4CCC5(CC4)OCCO5)ccc32)cc1	-1%	0.3	nt	nt	nt	nt	1	-8	-9	1.4
CCCn1cc2c3c(cccc31)C1CC(C)CN(C)C1C2 (stereo not drawn)	4%	nt	nt	nt	nt	nt	nt	4	0	-1.5
CCOC(=O)C1(c2ccccc2)CCN(CC(=O)Nc2ccc(C)cc2)CC1	9%	-0.3	0.1	-42	-73	-4.3	-2	5	62	1.9
NCCCP(=O)(O)CCc1ccccc1	0%	0.2	-1.3	14	2	7.8	1	4	3	0.2
c1ccc(CNCCc2ccc3c(c2)OCO3)nc1	-3%	0.4	1.7	18	5	7.6	-4	-7	-23	-2.8
c1cc2c(cc1CN1CCNCC1)OCO2	-9%	0.3	nt	nt	nt	nt	-2	9	-5	?
O=C1NC(=O)C2(Cc3ccccc3N3CCCC32)C(=O)N1Cc1ccccc1 (stereo not drawn)	17%	-0.2	nt	nt	nt	nt	1	-8	?	?
CCC(=NCCc1ccccc1)c1c(O)n(C)c(=O)n(C)c1=O	1%	-1.0	-2.0	-16	-2	0.0	11	9	16	0.0
CCOc1cc2c(cc1OCC)-n1cccc1C(c1ccc(OC)c(OC)c1)NC2 (stereo not drawn)	0%	0.0	7.8	1	-1	0.1	0	21	-11	1.1
CN1CCN(Cc2ccc(Br)s2)CC1	3%	-0.1	nt	nt	nt	nt	-1	10	-3	2.7
CCCCN1C(=O)/C(=C/c2ccc(N(C)C)cc2)C(=O)N(Cc2ccco2)C1=O	?	0.6	nt	nt	nt	nt	0	-3	9	-2.9
Cc1cc(C)nc(/N=C(\N)c2c(O)[nH]c(=O)[nH]c2=O)n1	0%	-0.5	nt	nt	nt	nt	2	-3	0	-1.4
CCCCCCn1c(=O)c(C(=O)Nc2ncccc2O)c(O)c2ccccc21	-2%	0.1	-1.0	4	7	0.7	nt	-5	21	-1.2
CC(C)(C)C(=O)O[C@H]1CC[C@@]2(C)C(=CC(=O)C3C2CC[C@]2(C)C(=O)CCC32)C1 (stereo partly drawn)	-8%	-0.5	1.8	9	10	1.1	5	nt	nt	nt
COc1ccccc1OCCCn1cc(C(=O)C2CC2)c2ccccc21	-3%	-0.6	-6.0	-33	-35	0.2	-1	6	5	-0.8
O=C(CN1CCOCC1)NCC(=O)Nc1ccc(Br)cc1C(=O)c1ccccc1	3%	?	nt	nt	nt	nt	1	-8	?	?
CCOc1ccc(-n2c(O)c(C=Nc3ccc(N(CC)CC)cc3)c(=O)[nH]c2=O)cc1	21%	-1.3	nt	nt	nt	nt	nt	15	?	-5.9
COc1ccc(CNCCc2ccc3c(c2)OCO3)c(OC)c1OC	-2%	-0.2	-13	7	7	0.2	-7	50	-19	0.8

Remaining list, next part:
SMILES	Vif A3G	A1 inh	AF4-AF9 inh	Ecoli rRNA inh	Ecoli rRNA inh OD600	Ecoli rRNA inh RFP	Beta cell apopt	T cruzi repl	Calb FLC	RanGTP-Impb inh
CCCCCn1c(=O)c(C(=O)Nc2cccc(C)n2)c(O)c2ccccc21	nt	0.1	0.2	10	10	-0.8	nt	7	-3	1.4
CC(C)c1ccc(NC(=O)N2C[C@H]3C[C@@H](C2)c2cccc(=O)n2C3)cc1	nt	1.0	-3.2	nt	nt	nt	-6	-3	-4	-4.5
CC(C)CC1C(C#N)=C(N)Oc2c1c(=O)oc1ccccc21 (stereo not drawn)	2%	-1.3	0.3	-4	-10	2.7	nt	-18	-1	?
CN1CCN(Cc2c(F)cccc2Cl)CC1	nt	-0.2	-3.3	16	7	1.7	nt	-10	4	-0.7
Cc1cccnc1-n1c(C)nc2ccccc2c1=O	-5%	0.3	nt	nt	nt	nt	-10	-7	-1	2.3
COC(=O)C1=C(c2ccc(F)cc2OCc2ccccc2)C[C@@H]2CC[C@H]1N2C(=O)NCCOc1ccccc1Cl	nt	-2.2	-1.5	10	9	0.2	4	nt	nt	nt
O=S(=O)(c1ccc(Cl)cc1)N1CCCCC1c1cccnc1 (stereo not drawn)	-6%	-0.3	3.3	-38	-41	-12	-4	71*	15	1.5
Clc1ccc2c(c1)C(c1ccccc1Cl)=NCc1nnc(Br)n1-2	nt	-0.6	nt	nt	nt	nt	16	13	28	1.5
CC(=O)NC(Cc1ccc(N(CCCl)CCCl)cc1)C(=O)NC(C(=O)O)C(C)C (stereo not drawn)	3%	0.9	0.4	26	20	2.8	-12	-9	31	-5.9
N#Cc1ccc(NC(=O)CN2C(=O)NC3(CCCC3)C2=O)cc1Cl	nt	-0.1	0.3	-2	-1	2.3	-2	-6	1	3.1
Cc1ccc(-n2c(O)c(C=N)c(=O)n(-c3ccc(C)cc3)c2=O)cc1	7%	0.8	-2.7	2	10	0.1	-7	-4	2	-2.6
Cc1nccc2c1[nH]c1ccc(Br)cc12	nt	-0.8	-0.1	nt	nt	nt	-2	2	-5	0.0
c1ccc2sc(N3CCNCC3)nc2c1	14%	1.4	-3.9	12	8	0.7	-8	-3	15	?
NCCc1ccccn1	nt	-0.5	nt	nt	nt	nt	2	0	nt	0.4
CCC1(C)OC(c2ccccc2)=C/C(=C/C=C2C(=O)NC(=O)NC2=O)O1 (stereo not drawn)	5%	nt	1.2	25	8	6.2	nt	2	60	-49
CCC(=O)Nc1cc(C(=O)N2CCC3(CC2)OCCO3)ccc1S(=O)(=O)c1ccc(C)cc1	-1%	-0.3	nt	nt	nt	nt	-5	-5	-2	3.4
Cc1cc(/C=C2\C(=O)NC(=O)N(c3ccc(F)cc3)C2=O)c(C)n1-c1cccc(C(=O)O)c1	?	-0.6	-2.0	15	9	7.6	-2	-15	-2	3.1
CN1C(=O)C(=Cc2sc(=O)n(-c3ccccc3)c2N(C)C)C(=O)N(C)C1=O	-4%	-1.6	-4.6	14	7	1.8	-7	4	0	10
N#Cc1ccc(NC(=O)CN2CCCC2)cc1Cl	3%	-0.4	2.2	-3	-6	-1.4	0	-2	5	-3.0
CCOC(=O)c1ccc(NC(=O)c2c(O)[nH]c(=O)[nH]c2=O)cc1	19%&-13%	-6.1	nt	nt	nt	nt	2	-9	-2	5.0
Fc1ccccc1N1CCN(Cc2c(F)cccc2F)CC1	-11%	0.3	nt	nt	nt	nt	-3	6	42	-0.2
CCC1CO/C(=C(\C(Cl)=C(Cl)Cl)[N+](=O)[O-])N1Cc1ccc(Cl)nc1 (stereo not drawn)	-3%	1.0	1.0	4	10	-0.8	-3	-11	-4	-0.4
C/C(=N\NC(=O)c1ccncc1)c1c(O)n(Cc2ccccc2)c(=O)[nH]c1=O	?	0.5	-8.3	1	-4	6.7	0	-5	3	0.5
C=CCn1c(O)c(C(C)=NCCO)c(=O)[nH]c1=O	0%	-0.6	nt	nt	nt	nt	-3	-13	-1	11
CC1(C)C(C(=O)NN2C(=O)c3ccccc3C2=O)C1(C)C	15%	0.4	nt	nt	nt	nt	-7	-17	-1	2.5

Continued:
SMILES	Vif A3G	A1 inh	AF4-AF9 inh	Ecoli rRNA inh	Ecoli rRNA inh OD600	Ecoli rRNA inh RFP	Beta cell apopt	T cruzi repl	Calb FLC	RanGTP-Impb inh
CCCN(CCC)C1CCc2cccc(O)c2C1 (stereo not drawn)	nt	-0.3	0.3	3	5	0.4	0	-4	nt	-2.8
O=C(O)c1ccccc1NC(=O)N1C[C@H]2C[C@@H](C1)c1cccc(=O)n1C2	nt	-1.1	-1.8	11	0	2.4	-3	2	5	3.5
COc1ccc2[nH]c(C)c(CCNCc3cc(OC)c4c(c3)OCO4)c2c1	nt	0.7	22	44	-11	8.7	-5	nt	nt	nt
COC(=O)C1=C(c2cccc(OCc3ccccc3)c2)C[C@@H]2CC[C@H]1N2C(=O)NCCOc1ccccc1	nt	-0.1	-2.0	1	2	-3.7	3	nt	nt	nt
Cn1cc(CCC(=O)N2CCC3(CC2)OCCO3)c2ccccc21	15%	-0.5	nt	nt	nt	nt	0	-6	-19	-0.1
COC(=O)Nc1ccc(N=C(N)N[N+](=O)[O-])cc1	-5%	0.6	-3.0	10	11	1.6	0	-5	-15	-0.2
CC(NCc1ccccc1C(F)(F)F)C(O)c1ccccc1 (stereo not drawn)	nt	0.0	-16	-1	-2	-2.7	-2	-4	-5	-2.3
Oc1ccc(/C=N/NP(=S)(c2ccccc2)c2ccccc2)cc1O	>100µM*	0.2	-37	-21*	-10*	6.9*	nt	-12	37	-2.0
N#CCCn1cc(C(=O)Nc2ccccc2Br)c(-c2ccc([N+](=O)[O-])cc2)n1	nt	-0.4	-0.2	11	7	1.5	-1	9	24	-1.2
COc1ccccc1-n1c(-c2ccccc2Br)nc2ccccc2c1=O	nt	1.3	2.4	-7	-10	2.9	1	15	37	1.2
COc1ccc(Cl)cc1N=Cc1c(O)n(C)c(=O)n(C)c1=O	nt	-1.3	-0.5	11	13	-1.2	-1	-31	-5	-0.2
O=Cc1cn(Cc2cccc([N+](=O)[O-])c2)c2ccccc12	10%	0.6	-0.7	-21*	-3.7*	8.8*	3	-2	4	1.8
Oc1ccc2c3c1O[C@H]1[C@@H](O)CC[C@@]4(O)[C@@H](C2)N(CC2CCC2)CC[C@]314	nt	-1.2&-0.5	-3.7&-0.5	8	12	1.1	-4&-10	-11	-6	7.2
N=c1sccn1Cc1ccc(Cl)cc1Cl	-1%	0.4	nt	nt	nt	nt	-4	-13	0	3.0

Assay outcomes: PubChem BioAssay, several laboratories

A portion of the library; rates above refer to the full screens.
